MT1-MMP promoter: inhibitors of MT1-MMP promoter transcription, cell-based, luciferase reporter, luminescence (AID 618); MT1-MMP promoter luciferase reporter cells, luminescence; calls from a first round at 10 µM; hits with a dose series show EC50 in µM; 87,000 compounds, 0.62% hits;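 active means over half of the reporter light lost at 10 µM or EC50 under 50 µM; inactive means the rest and hits that failed the dose series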;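 further: actives suppress MT1-MMP promoter-driven transcription so potencies describe inhibitors; HT1080 fibrosarcoma cells; overnight exposure; toxic or luciferase-blocking compounds were not removed from the actives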
WNV protease inh: inhibitors of WNV NS2B-NS3 protease, primary screen, biochemical, fluorogenic substrate. fluorogenic substrate Ex360/Em465; hits give low values. z-score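 (tested at a level between 10 and 100 µM)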. 65,000 compounds, 0.18% hits. AID 577, 2007;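 active means z-score at -3 or under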;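 further: score is relative to mean and spread of the compound wells of a plate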
Target sequence (P06935 1371-1501 limits assumed): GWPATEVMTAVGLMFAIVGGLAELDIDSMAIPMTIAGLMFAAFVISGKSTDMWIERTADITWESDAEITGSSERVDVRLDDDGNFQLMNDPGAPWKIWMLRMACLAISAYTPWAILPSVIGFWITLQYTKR
Target sequence (P06935 1502-1679 limits assumed): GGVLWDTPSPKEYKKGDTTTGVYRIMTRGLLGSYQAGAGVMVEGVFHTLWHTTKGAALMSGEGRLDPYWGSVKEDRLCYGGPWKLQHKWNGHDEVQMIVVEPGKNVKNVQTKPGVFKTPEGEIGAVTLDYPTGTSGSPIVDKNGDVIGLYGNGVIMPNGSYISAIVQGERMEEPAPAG
Hsc70 ATP site: Hsc70 inhibitors, probe displacement, primary screen, biochemical, fluorescence polarization (AID 568); Hsc70 fluorescence polarization, probe displacement; higher % means a stronger effect; strong numbers were not always called active; displacement, % at 20 µM, or IC50 in µM where a hit was titrated; 83,000 tested, under 10 active;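 active means displacement above 50% without optical interference and an IC50 on retest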;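 further: ATPase domain with a fluorescein-tagged ATP probe; 0% = vehicle and 100% = excess ADP; read after one hour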
The depositor's hits bear a star; i = inactive; nt = not tested or not shown. Compounds were not picked by outcome, and some 0.8% of all compounds hit somewhere here.

SMILES	MT1-MMP promoter	WNV protease inh	Hsc70 ATP site
Oc1c(C(c2cccs2)N2CCN(c3cccc(Cl)c3)CC2)sc2ncnn12 (stereo not given)	i	-0.53	2.9%
Cc1ccc(C)n1-c1cccc(C(=O)O)c1	i	0.3	13%
Cn1c(=O)n(CCc2ccccc2)c(=O)c2c1nc1n2CCCN1c1ccccc1	i	nt	2.0%
O=C(NC(Cc1ccccc1)C(=O)N1CCCC1C(=O)O)c1ccccc1 (stereo not given)	i	0.15	-0.7%
CC(C)C(C(=O)NCC1CCCO1)N(Cc1ccco1)C(=O)CNS(=O)(=O)c1ccccc1 (stereo not given)	i	1.4	-0.7%
CC1CN(C(=O)c2cccs2)CCN1C(=O)c1cccs1 (stereo not given)	i	0.32	-0.7%
COc1cccc(-n2nc(C(=O)O)c3ccccc3c2=O)c1	i	0.54	0.9%
COc1ccccc1CNC(=O)CS(=O)Cc1nc(-c2ccccc2C)oc1C (stereo not given)	i	2.2	-1.9%
CCOC(=O)c1c(C)[nH]c(C(=O)OC)c1CCC(=O)OC	i	0.99	-3.4%
Cc1ccccc1NC(=O)N1C2CCCC1CC(NC(=O)C(C)(C)C)C2 (stereo not given)	i	1	-0.8%
Cc1n[nH]c(C)c1S(=O)(=O)N1CCC(C(=O)O)CC1	i	0.24	-4.9%
CCN1C(=C2C(=O)c3ccccc3C2=O)C=Cc2ccccc21	i	-1.1	-8.2%
COc1cc([C@@H]2c3cc4c(cc3[C@H](O)[C@H]3COC(=O)[C@H]23)OCO4)cc(OC)c1OC	i	0.78	-2.8%
Cc1ccc(S(=O)(=O)/C(C#N)=C/c2c(N3CCC(C(N)=O)CC3)nc3c(C)cccn3c2=O)cc1	i	nt	0.6%
CCOc1ccc(NC(=O)CSc2nc(C)c3c(c2C#N)CCCC3)cc1	i	nt	-4.2%
COc1cc(/C=N/NC(=O)Cn2nc([N+](=O)[O-])cc2C)cc(Br)c1OCc1ccccc1	i	nt	4.3%
CC(C)(C)c1ccc(CN(Cc2ccco2)Cc2nnnn2C2CCCC2)cc1	i	nt	1.6%
c1ccc(CSc2ncnc3c2oc2ccccc23)cc1	i	nt	0.5%
O=C(O)c1cnc2ccccc2n1	i	-0.02	0.4%
Cc1cc(C(=O)Nc2ccccc2)c(C)o1	i	nt	2.6%
Cc1sc(NC(=O)CSc2ncn(-c3ccccc3)n2)nc1-c1ccccc1	i	nt	0.4%
COc1ccc(C(=O)N2c3ccccc3CC2C)cc1OC (stereo not given)	i	0.32	4.9%
O=C(NCCO)c1scc2c1OCCO2	i	1	-4.8%
CCOc1ccccc1C1C(C#N)=C(N)SC(N)=C1C#N	i	-0.32	-21%
CC1(C)CC(=O)C2=C(C1)NCN(CCCN1CCOCC1)C2	i	0.21	-4.8%
CC(C)COC(=O)c1ccc(NC(=O)C2C3CCC(C3)C2C(=O)O)cc1 (stereo not given)	i	-1.1	-2.6%
Cc1cc(NC(=O)CCC(=O)N(c2ccccc2)C(C(=O)NC2CCCCC2)c2cccs2)no1 (stereo not given)	i	nt	2.3%
COc1ccc(-n2ncc3c(NCCCn4ccnc4)ncnc32)cc1	i	-0.62	-1.4%
Cn1c(-c2sc(=S)n(-c3ccccc3)c2N)nc2ccccc21	i	nt	-1.2%
Cn1c(CCN2CCCCCC2)nc2cc(NC(=O)Nc3ccccc3)ccc21	i	-0.8	0.8%

Among those listed so far, these have a cyano group:
SMILES	MT1-MMP promoter	WNV protease inh	Hsc70 ATP site
Cc1ccc(S(=O)(=O)/C(C#N)=C/c2c(N3CCC(C(N)=O)CC3)nc3c(C)cccn3c2=O)cc1	i	nt	0.6%
CCOc1ccc(NC(=O)CSc2nc(C)c3c(c2C#N)CCCC3)cc1	i	nt	-4.2%
CCOc1ccccc1C1C(C#N)=C(N)SC(N)=C1C#N	i	-0.32	-21%

Other structures
SMILES	MT1-MMP promoter	WNV protease inh	Hsc70 ATP site
CCOC(=O)c1ccc(N2C(=O)C3CC=CCC3C2=O)cc1 (stereo not given)	i	-0.98	5.2%
CC(C)(C)n1nc2c(c1NC(=O)c1ccc(Br)cc1)CS(=O)C2 (stereo not given)	i	-0.33	-0.5%
CCn1ncc(Br)c1C(=O)N(C)C12CC3CC(CC(C3)C1)C2	i	1.2	7.9%
COC(=O)/C(=C1/Oc2cc(C)oc(=O)c2S1)C(F)(F)F	i	-0.22	3.6%
CCC(C)(C)n1nnnc1C(c1ccc(C)cc1)N1CCN(C(=O)c2ccco2)CC1 (stereo not given)	i	nt	0.8%
CSc1nc(N2CCOCC2)c2c(c1C#N)CCCCC2	i	0.74	5.9%
COc1ccc(NC(=O)CCCNS(=O)(=O)c2cccs2)cc1	i	-0.72	-1.9%
FC(F)(F)c1cccc(N2CCN(Cc3ccoc3)CC2)c1	i	-0.64	-1.9%
O=C(CSc1nnc(-c2cccnc2)n1-c1ccccc1)Nc1ccc2c(c1)OCO2	i	-0.03	-0.8%
CC(C)(C)NC(=O)Cn1nnc(-c2ccc(Cl)cc2)n1	i	2	1.5%

Copied from the list.
Reading of `CC(C)(C)n1nc2c(c1NC(=O)c1ccc(Br)cc1)CS(=O)C2` (stereo not given) under Hsc70 ATP site: -0.5%
Reading of `O=C(CSc1nnc(-c2cccnc2)n1-c1ccccc1)Nc1ccc2c(c1)OCO2` under Hsc70 ATP site: -0.8%
Reading of `Cc1cc(NC(=O)CCC(=O)N(c2ccccc2)C(C(=O)NC2CCCCC2)c2cccs2)no1` (stereo not given) under Hsc70 ATP site: 2.3%
Reading of `CC1(C)CC(=O)C2=C(C1)NCN(CCCN1CCOCC1)C2` under Hsc70 ATP site: -4.8%
Reading of `CCOC(=O)c1ccc(N2C(=O)C3CC=CCC3C2=O)cc1` (stereo not given) under Hsc70 ATP site: 5.2%

(list continues)
SMILES	MT1-MMP promoter	WNV protease inh	Hsc70 ATP site
O=C(CS(=O)(=O)Cc1ccccc1)NCC1CCCO1 (stereo not given)	i	-0.43	5.8%
O=C(O)CCCCCNS(=O)(=O)c1cccc2nsnc12	i	nt	1.2%
Cc1ccc(C(c2nnnn2C2CCCCC2)N(C)C2CCCCC2)cc1 (stereo not given)	i	nt	1.4%
COCc1nc2ccccc2n1Cc1cccc(C)c1	i	nt	1.7%
O=C(Nc1ccc(S(=O)(=O)N2CCc3ccccc32)cc1)c1ccco1	i	0.48	-2.2%
COc1ccc(N/C=C2/CCCCC2=O)cc1	i	0.35	5.4%
CCC(CC)C(=O)NCCc1cc2ccc(OC)cc2[nH]c1=O	i	0.07	-2.8%
CCOC(=O)C1CCCN(C(=O)c2cn(C)c3ccc(S(=O)(=O)N(C)C)cc3c2=O)C1 (stereo not given)	i	-0.82	-3.8%
CN(CC(=O)N1CCc2ccccc21)S(=O)(=O)c1cccc2cccnc12	i	-0.38	1.4%
O=C(COC(=O)CCC(=O)Nc1nccs1)NCc1ccco1	i	0.5	-3.0%
COc1ccc(F)c(C2C(C#N)=C(N)Oc3n[nH]c(C(C)(C)C)c32)c1 (stereo not given)	i	-1.1	3.9%
O=C(OCC(=O)N1CCCCCC1)c1cccs1	i	-0.04	1.7%
CN1C(=O)C(=C2CCCCCC2)SC1=S	i	-0.58	-0.3%
CCCn1c(C(O)c2ccc3c(c2)OCO3)nc2ccccc21 (stereo not given)	i	-0.75	-2.1%
Cc1ccc(C)c(C(=O)C(C)OC(=O)c2cccn2C)c1 (stereo not given)	i	-0.78	-1.9%
CCN(CC)S(=O)(=O)c1cc(C(=O)O)c(Cl)cc1Cl	i	nt	-1.4%
Fc1ccc(-c2cc(C(F)(F)F)nc(-n3cncn3)n2)cc1	i	-1.6	-5.9%
COc1ccc(Cn2c(SCC(=O)NCc3ccco3)nc3ccsc3c2=O)cc1	i	0.26	4.0%
CCn1nccc1C(=O)Nc1nccs1	i	0.17	-8.6%
O=c1cc(CN2CCN(C/C=C/c3ccccc3)CC2)c2cc(O)ccc2o1	i	-1.2	0.2%
CCOC(=O)CSc1nc2ccccc2c(=O)n1CCCCCC(=O)NCc1ccco1	i	0.32	-2.0%
CCOC(=O)c1c(C)c(C(=O)N2CCN(C(=O)c3ccco3)CC2)c(C)n1C	i	0.13	0.8%
Cc1nc(=O)c(-c2ccccc2)c(C)n1-c1ccc(O)cc1	i	nt	-5.1%
Cc1ccc(N2CCCCn3c2nc2c3c(=O)n(CC(=O)O)c(=O)n2C)cc1	i	-0.97	-6.8%
O=C(OCCN1CCCC1)C1(c2ccccc2)CCCC1	i	-0.03	2.2%
CCOC(=O)Cc1c(C)nc2c(C#N)c[nH]n2c1=O	i	nt	-1.3%
Cc1ccc(O)c(CNn2cnnc2)c1	i	nt	-0.3%
Cc1cc(C)nc(-n2nc(C)c(Br)c2Nc2ccc(Br)cc2)n1	i	nt	-1.7%
CCCCOC(=O)Nc1nccs1	i	-0.0051	-1.5%
CCCCn1c(SCC(=O)N2CCC(C)CC2)nc2cc(S(N)(=O)=O)ccc21	i	-1.8	3.8%

Quoted at random: 2 records from the list, in no set order.
SMILES	MT1-MMP promoter	WNV protease inh	Hsc70 ATP site
CCCCOC(=O)Nc1nccs1	i	-0.0051	-1.5%
Cc1ccc(O)c(CNn2cnnc2)c1	i	nt	-0.3%

Next part
SMILES	MT1-MMP promoter	WNV protease inh	Hsc70 ATP site
CCOC(=O)CSc1nncc2ccc(OC)c(OC)c12	i	-0.54	-1.6%
Cc1sc(NC(=S)NC(=O)c2ccccc2)c(C#N)c1C	i	nt	-0.8%
Cc1cccc2cc(C(c3nnnn3CC3CCCO3)N3CCOCC3)c(=O)[nH]c12 (stereo not given)	i	0.47	-12%
CCOc1ccc(CCNc2cc(C)nc3ncnn23)cc1OCC	i	-0.2	-4.7%
CCCSc1nnc(Cc2cc(=O)[nH]c(=O)[nH]2)n1-c1cc(C)ccc1C	i	1.1	-5.3%
Fc1ccc(CN2CCCCCCC2)cc1	i	nt	1.6%
Oc1oc(-c2ccco2)nc1C=Nc1cccc(Cl)c1	i	1.6	1.2%
COc1ccccc1-n1cnc2cc(NS(=O)(=O)c3ccccc3)ccc21	i	0.28	5.2%
O=C1CC(Cc2ccc(Cl)cc2)C(=O)N1c1ccccn1 (stereo not given)	i	0.79	-0.9%
CCCC1OC23CCCCC2C(C#N)(C(=N)O3)C1(C#N)C#N (stereo not given)	i	nt	-5.4%
Cn1c(=O)[nH]c(=O)c2c1nc(SCCN1CCCCC1)n2CCCc1ccccc1	i	-1.4	0.4%
CC1CCCCN1C(=O)c1ccc(S(=O)(=O)N2CCCCC2C)cc1 (stereo not given)	i	-0.14	-0.1%
CC(C)CNC(=O)c1cc2nc(C3CC3)cc(C(F)(F)F)n2n1	i	nt	0.1%
CCOC(=O)c1cccc(NC(=O)Cn2c(CC(=O)N3CCCC3)nc3ccccc32)c1	i	-1.1	-4.1%
CC1(c2ccc(Cl)cc2)NC(=O)N(CC(=O)N2CCCC2)C1=O (stereo not given)	i	2.1	6.2%
CCOC(=O)CC(=O)CSc1ccc2nnc(-c3cccc(F)c3)n2n1	i	1.2	-0.4%
CCN(CC)CCNC(=O)Cn1nc(-c2ccc(C)cc2)ccc1=O	i	-0.85	-6.0%
CC1(O)N(Cc2ccccc2)C(=O)OC12CCCCC2 (stereo not given)	i	-0.95	-6.6%
CCCCn1c(CN(C)Cc2ccccc2)nc2c1c(=O)n(C)c(=O)n2C	i	0.98	0.7%
COCCCN1C(=O)c2ccc(C(=O)NCc3ccco3)cc2C1=O	i	-0.47	-1.4%
Cc1ccc2cc(CCNC(=O)C(C)C)c(=O)[nH]c2c1C	i	-0.74	4.3%
CC1(C)Cc2c(c(-c3ccco3)[nH]c(=O)c2C#N)CO1	i	-1.5	3.9%
OCC1OC(n2nnc3ccccc32)C(O)C(O)C1O (stereo not given)	i	-1.1	-0.8%
CC1CN(C(=O)c2ccc(COCC(F)(F)F)o2)CC(C)O1 (stereo not given)	i	0.79	-3.2%
CCCN(CCC)CCCNC(=O)c1cc2c(=O)n(C)c3ccccc3c2n1C	i	-1.1	5.4%
C=CCn1c(SCC#N)nc2c(c1=O)C(C)(C)Cc1ccccc1-2	i	0.94	5.9%
COc1ccc(NC(=O)CSc2nnc(Cc3cccn3C)n2-c2ccc(C)cc2)cc1OC	i	0.71	-7.4%
COc1ccc(-c2nn(-c3ccccc3)cc2C2CC(c3cccs3)=NN2C(=O)CCCC(=O)O)cc1 (stereo not given)	i	nt	-3.3%
CC(=O)N1CCN(CCN(CC2C(C)C=C(C)CC2C)C(C)=O)CC1 (stereo not given)	i	0.44	3.8%
CC1CN(C(=O)N(C)C)CCN1C(=O)N(C)C (stereo not given)	i	-1	4.3%
O=C(c1ccco1)c1nnn(Cc2ccccc2)c1-c1ccccc1	i	0.89	-6.8%
O=C(Nc1cc(=O)c2ccccc2o1)N1CCCCC1	i	0.13	4.0%
CC1Cc2ccccc2N1C(=O)CSc1nnc(CNc2ccccc2)o1 (stereo not given)	i	0.75	-0.6%
CCOC(=O)c1cnc(SC)nc1Nc1cccc(F)c1	i	-0.4	-3.1%
O=C(Nc1cccc2ccccc12)N1CCN(Cc2ccc3c(c2)OCO3)CC1	i	nt	-0.5%
CCOc1ccccc1NC(=O)CSc1nnc(-c2ccco2)o1	i	-0.96	-4.7%
COc1cc(C(=O)OCC(=O)Nc2cc(C)on2)ccc1OCc1ccccc1Cl	i	0.55	6.5%
O=C1CCc2cc(S(=O)(=O)N3CCCC3C(=O)N3CCN(c4ccccc4)CC3)ccc2N1 (stereo not given)	i	-0.3	1.4%
O=C(O)CCCCCNC(=O)CCn1cnc2ccccc2c1=O	i	-0.35	2.3%
